TRPV1 potentiator: HTS Assay for Compounds that Act as Potentiators of the Vanilloid Receptor 1; Transient receptor potential cation channel subfamily V member 1 (Homo sapiens), Q8NER1; TRPV1-expressing cells, Fluo-8 calcium influx, capsaicin EC20 potentiation; host cell line not named in the record; control for the full effect not named in the record; potentiation, % at 8.33 µM; 0.02% of 320,000 active; active means potentiation above 80%; inconclusive means 30% to 80%; inactive means below 30%; note: 0% is about no effect
Target sequence (Q8NER1 whole entry, looked up): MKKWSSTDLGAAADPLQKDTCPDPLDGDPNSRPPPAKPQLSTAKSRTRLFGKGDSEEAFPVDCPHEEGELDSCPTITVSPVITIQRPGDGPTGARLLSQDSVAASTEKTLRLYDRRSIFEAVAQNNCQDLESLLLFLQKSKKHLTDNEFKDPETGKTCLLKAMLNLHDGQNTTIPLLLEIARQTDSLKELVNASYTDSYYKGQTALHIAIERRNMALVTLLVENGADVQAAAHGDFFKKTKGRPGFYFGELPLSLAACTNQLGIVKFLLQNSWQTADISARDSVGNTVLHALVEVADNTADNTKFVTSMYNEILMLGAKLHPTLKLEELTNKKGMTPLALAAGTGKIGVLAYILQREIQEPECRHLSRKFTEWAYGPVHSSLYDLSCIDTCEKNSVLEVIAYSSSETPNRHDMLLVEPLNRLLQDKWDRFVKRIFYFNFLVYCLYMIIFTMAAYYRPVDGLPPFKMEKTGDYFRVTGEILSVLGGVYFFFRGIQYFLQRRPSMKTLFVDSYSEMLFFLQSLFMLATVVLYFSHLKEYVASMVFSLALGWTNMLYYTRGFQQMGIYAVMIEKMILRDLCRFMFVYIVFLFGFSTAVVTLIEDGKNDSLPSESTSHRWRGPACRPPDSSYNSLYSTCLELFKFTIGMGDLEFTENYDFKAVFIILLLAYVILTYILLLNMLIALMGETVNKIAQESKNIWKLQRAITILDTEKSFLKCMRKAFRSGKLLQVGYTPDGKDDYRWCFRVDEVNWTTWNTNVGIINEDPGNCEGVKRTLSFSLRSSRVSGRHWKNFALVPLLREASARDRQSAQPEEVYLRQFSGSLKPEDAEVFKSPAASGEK
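Fluo-8 calcium influx in TRPV1-expressing cells, kinetic read (ex 480/em 520 nm). Compound added and read 3 min for agonist activity, followed by capsaicin at EC20 final and 2 min further read for enhancement.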
Menin MLL FP FL: qHTS Assay for Inhibitors Targeting the Menin-MLL Interaction in MLL Related Leukemias: Competition With Fluorescein Labeled MLL-derived Peptide. Fluorescence polarization, fluorescein-MLL peptide displacement from menin. FP activity change, % at 61.4 µM. 290,000 tested, under 10 active; inconclusive = falling polarisation curve, or a change in total fluorescence; inactive = total fluorescence flat and polarisation flat or rising; no compound was filed as active; the % refers to the polarisation; negative = inhibition;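 note: % of control where 0% means no effect; inhibitors lower the polarisation; unlabelled MLL peptide was the positive control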
Sfp inh: qHTS Assay for Inhibitors of Bacillus subtilis Sfp phosphopantetheinyl transferase (PPTase). Biochemical Sfp PPTase activity, qHTS. Potency, µM, without a hit: max response, negative = inhibition, usual class: inhibitors. 3.5% of 310,000 active. AID 1490, 2009; active = well fitted inhibition curve with a large enough effect; inconclusive = small, poorly fitted or top-dose-only effect, or another doubt; inactive = no such curve, though single readings can be large or run the other way;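 note: the enzyme is Sfp with the accession as filed and its product quenches rhodamine fluorescence; potency is the fitted concentration of half-maximal effect; 0% = enzyme reaction without inhibitor and -100% = no enzyme wells; top concentration of the series not given in the record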
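Reaction rates are the 30-min fluorescence difference (ex 525, em 598 nm) in wells containing 15 nM Sfp, 5 uM rhodamine-CoA and 12.5 uM BHQ-2-YbbR at pH 7.6 with 10 mM MgCl2.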
ClpP mod: qHTS Assay for Activators of ClpP | ATP-dependent Clp protease proteolytic subunit (Bacillus subtilis (strain 168)), P80244 | purified B. subtilis ClpP, FRET peptide cleavage, 20 min | Potency, µM (doses to about 57.5 µM), for the others: at the highest dose activity change, negative = active | 1.9% of 340,000 active | AID 651965, 2013; active = well fitted falling curve with a large enough effect; inconclusive = small, poorly fitted or top-dose-only effect; inactive = no such curve, though single readings can be large or run the other way; note: potency is the fitted concentration of half-maximal effect; the source files actives as falling curves though it sought activators and does not explain the sign; nearly all actives have a fitted effect of over 65% in size; many hits overshoot -100%
Target sequence (P80244 whole entry, looked up): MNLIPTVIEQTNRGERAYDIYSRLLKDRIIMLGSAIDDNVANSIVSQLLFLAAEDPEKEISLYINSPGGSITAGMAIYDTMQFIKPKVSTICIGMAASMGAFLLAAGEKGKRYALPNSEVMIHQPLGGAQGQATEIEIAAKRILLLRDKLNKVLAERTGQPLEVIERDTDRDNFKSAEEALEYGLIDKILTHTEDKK
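Buffer: 100 mM Tris/HCl pH8, 100 mM KCl, 0.05% low protease BSA, 2.5% glycerol, 0.01% Tween-20. ClpP 10 microg/mL final; 20 min RT; delta FRET normalized to ADEP and DMSO controls.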
TRPML1 ag: qHTS for Agonists of the Human Mucolipin Transient Receptor Potential 1 (TRPML1); Mucolipin-1 (Homo sapiens), Q9GZU1; activation, % (concentration not given with the values); 0.12% of 410,000 active; TRPML1-expressing cells, Ca2+ dye fluorescence, FDSS; host cell line not named in the record; reference of the full effect not given here; AID 624414, 2012; in the data active = activation above about 50%; inconclusive = about 30% to 50%; inactive = below about 30%; note: 0% is about no effect; the text of the record puts the active cut at 80%
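Calcium fluorescence on an FDSS kinetic reader gave the read-out. Tet-induced TRPML1-DL cells were plated overnight, dye-loaded (Ca8 with quencher, 45-90 min, room temperature, dark), then read 110 s after compound addition, and again 110 s after 4uM final 54-4 (EC80).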
PINK1 modulator: A Quantitative High throughput Screen to Identify Chemical Modulators of PINK1 Expression | Potency, µM (titrated, usually from 76.6 µM), without a hit: at the highest dose activation (PINK1 increase), actives largely listed as activators | PINK1 immunofluorescence, high-content cytometry, 24 h | 0.2% of 410,000 active; active = well fitted activation curve with a large enough effect; inconclusive = small, poorly fitted or top-dose-only effect; inactive = flat fitted curve, though single readings scatter; cell line not stated here;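 note: potency is the fitted concentration of half-maximal effect; % of control where 0% means no effect; nearly all actives have a fitted effect of over 65% in size; a mitochondrial uncoupler was the plate control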
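Measures PINK1 amount and localization on or inside mitochondria by immunofluorescence. Stable cells get compounds at 5 concentrations for 24 hours before fixation and staining; CCCP controls included.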
TRPML1 blocker: qHTS for Inhibitors of the Human Mucolipin Transient Receptor Potential 1 (TRPML1); TRPML1-inducible cells, Ca2+ dye fluorescence, FDSS; hits give low values; inhibition of EC80 agonist-evoked calcium signal; activity change, negative = inhibition, % (concentration not given with the values); 0.02% of 390,000 active; in the data active means activity change below about -50%; inconclusive means about -30% to -50%; inactive means above about -30%;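 note: stimulus is agonist 54-4 at its EC80 concentration; % is set by controls: 0 for no effect and ±100 for the full control effect; compound concentration not given in the record; the text of the record puts the active cut at -80%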
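Calcium fluorescence in TRPML1-DL cells induced overnight with Tet: a 110 s read after compound pin addition, then a 110 s antagonist read after challenge with 54-4 at 4 uM final (EC80).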
Active calls of the source: *; ? = inconclusive; nt = not tested or not shown.

nr | structure | ClpP mod | Sfp inh | PINK1 modulator | TRPML1 blocker | TRPV1 potentiator | TRPML1 ag | Menin MLL FP FL
1 | Cc1cnc(NC(=O)c2c(O)c3cccc4c3n(c2=O)CCC4)s1 | nt | 7% | nt | nt | 4 | nt | 0.1
2 | Cn1cccc1/C=N/n1cnnc1 | -2.4% | -6% | 4.2% | 0 | -38 | 0.0 | 3.6
3 | C#CCSc1nnc(-c2ccc([N+](=O)[O-])cc2)o1 | 0.2% | 8% | -2.2% | 6 | 2 | -0.1 | 0.2
4 | COc1cccc(NC(=O)N(C)C[C@@H]2OCc3cnnn3CCCC(=O)N([C@@H](C)CO)C[C@H]2C)c1 | -1.7% | nt | -2.3% | 1 | nt | -0.3 | nt
5 | CCC(=NC(CC)CO)C1=C(O)CC(C)(C)CC1=O (centres undefined) | -1.3% | 0% | ? | -10 | 0 | -0.4 | -0.7
6 | CC(C)NS(=O)(=O)c1ccc2c(c1)oc(=O)n2C | -4.1% | 23% | 1.0% | -10 | -6 | 0.4 | 0.0
7 | COC(=O)c1c(-c2ccc3ccccc3c2)csc1NC(=O)Cc1ccc(OC)c(OC)c1 | -15% | -9% | 4.9% | 11 | 12 | 0.2 | ?
8 | CC(C)(C)n1ncc2c(=O)n(CC(=O)N3CCN(c4ccccc4)CC3)cnc21 | -1.6% | 6% | 0.5% | 2 | 13 | -1.0 | ?

Reprinted at random: 3 entries already listed
nr | structure | ClpP mod | Sfp inh | PINK1 modulator | TRPML1 blocker | TRPV1 potentiator | TRPML1 ag | Menin MLL FP FL
5 | CCC(=NC(CC)CO)C1=C(O)CC(C)(C)CC1=O (centres undefined) | -1.3% | 0% | ? | -10 | 0 | -0.4 | -0.7
7 | COC(=O)c1c(-c2ccc3ccccc3c2)csc1NC(=O)Cc1ccc(OC)c(OC)c1 | -15% | -9% | 4.9% | 11 | 12 | 0.2 | ?
6 | CC(C)NS(=O)(=O)c1ccc2c(c1)oc(=O)n2C | -4.1% | 23% | 1.0% | -10 | -6 | 0.4 | 0.0

Continued.
nr | structure | ClpP mod | Sfp inh | PINK1 modulator | TRPML1 blocker | TRPV1 potentiator | TRPML1 ag | Menin MLL FP FL
9 | N#Cc1nc(COc2ccccc2Cl)oc1NCc1ccco1 | -1.5% | 6% | 1.2% | 1 | -6 | 0.2 | ?
10 | COc1ccccc1CNC(=O)C1CCN(S(=O)(=O)c2ccc3nc4c(c(C(=O)O)c3c2)CCCC4)CC1 | -3.1% | 25% | -0.5% | 28 | 2 | 0.2 | nt
11 | CC1=C(C(=O)N(C)C)C(c2ccccc2OC(F)F)NC(=O)N1 (centres undefined) | nt | 5% | 0.5% | 36 | 12 | 1.4 | -1.2
12 | CC(C)N(C)c1ncnc2c1ncn2[C@H]1CN(Cc2cccs2)C[C@@H](CO)O1 | -0.1% | nt | -0.6% | nt | nt | -0.6 | nt
13 | CC(=O)Nc1ccc(NC(=O)CSc2ncc(C(=O)Nc3ccc(Cl)cc3)c(=O)n2C)cc1 | -8.4% | nt | ? | 3 | -2 | -0.2 | nt
14 | C=CCc1ccc(OCCOc2cccc3cccnc23)c(OC)c1 | -1.9% | -20% | 3.7% | 19 | 9 | -0.3 | 2.3
15 | CCn1c(SCC(=O)Nc2cccc(F)c2)nnc1-c1cc2cc(Br)ccc2o1 | 1.1% | 10% | 0.9% | 34 | 1 | -0.4 | 0.3
16 | Cc1nn(Cc2ccc(C(=O)NC(C)(C)C)o2)c(C)c1Br | 1.1% | 56µM* | 1.4% | -3 | -7 | -0.8 | 0.9
17 | COc1ccc(C(=O)/C=C2/C(=O)Nc3ccccc32)cc1OC | -2.9% | 0% | 8.0% | -8 | 23 | 0.6 | -24
18 | COC(=O)c1cccc(NS(=O)(=O)c2cccs2)c1C | -2.0% | 2% | -2.8% | -4 | 10 | -1.0 | 0.8
19 | Cn1nccc1C(=O)N1CCc2ccccc21 | -1.9% | 7% | -1.6% | 3 | 4 | -0.3 | 0.7
20 | O=C(CCNC(=O)c1ccco1)NCCc1c[nH]c2ccccc12 | -0.1% | nt | 0.1% | -10 | nt | -0.6 | nt
21 | COc1ccc(-n2c(=O)c3ccccc3c3ccccc3c2=O)c(OC)c1 | 1.0% | 5% | -1.0% | 17 | -11 | 1.8 | 3.3
22 | N=c1c2ccccc2nnn1-c1cccc(C(F)(F)F)c1 | nt | 14% | 1.2% | 6 | -27 | 2.0 | 1.7
23 | COc1cc2c(cc1OC)CN(CC(=O)NC(=O)NC1CCCCC1)CC2 | nt | -26% | -0.1% | -3 | -4 | 0.0 | 14
24 | Cc1cc(C)c2oc(-c3cccc(NC(=O)c4ccco4)c3)nc2c1 | 4.5% | nt | 4.6% | 3 | nt | -0.2 | nt
25 | O=C(Cn1nc(-c2ccccc2)ccc1=O)Nc1ccc(N2CCN(C(=O)c3cccs3)CC2)cc1 | nt | 2% | 0.9% | -9 | 2 | 0.7 | 2.0
26 | COc1ccc(-c2[nH]ncc2CN2CCC(c3ccncc3)CC2)cc1F | nt | 26% | 0.0% | 62 | 7 | -0.5 | -1.5
27 | CN(C)c1nc(-c2ccccc2)c2cc(Cl)ccc2n1 | -1.4% | -4% | 4.8% | -4 | 24 | -0.1 | -3.1
28 | CCN(CCS(=O)(=O)c1ccc(Cl)cc1)C(=O)Nc1ccccc1 | -0.2% | 17% | 1.0% | 1 | -4 | 0.6 | 2.3
29 | COc1cccc(NC(=O)CSc2nc3ccccc3c(=O)n2Cc2cccs2)c1 | -2.3% | 17% | 1.9% | 7 | 1 | 1.5 | -0.1
30 | C[C@H](NC(=O)c1nc[nH]c1C(=O)N[C@H](C)c1ccccc1)C(=O)OC(C)(C)C | -1.3% | 24% | 9.9% | 5 | -5 | 0.6 | 0.1
31 | COc1cccc(Nc2ncc3nc(C)c(=O)n(C)c3n2)c1 | nt | 12% | -0.2% | nt | nt | nt | 1.5
32 | Cc1c(Cc2ccc3c(c2)OCO3)sc(NC(=O)c2cccc3ccccc23)c1C(N)=O | -21% | 35µM* | 9.3% | -16 | 15 | -0.5 | 7.4
33 | CCc1ccc(NC(=O)C(C)OC(=O)C2CCC(=O)N2)cc1 (centres undefined) | nt | 1% | 3.0% | 2 | -5 | -0.5 | -3.0
34 | COc1ccc(NC(=O)CN(C)C(=O)c2cccnc2Sc2ccc(C)c(C)c2)cc1 | 8.5% | nt | 2.3% | -5 | 13 | 0.0 | nt
35 | CCCc1cc(-c2n[nH]c(=S)n2CC(C)C)cs1 | -8.4% | -9% | 4.1% | -9 | 4 | 3.8 | -1.4
36 | CCC(C(=O)N1CC2(C)CC1CC(C)(C)C2)N1C(=O)c2ccccc2C1=O (centres undefined) | -0.7% | 8% | 0.8% | -2 | -26 | 0.2 | -0.1
37 | COC(=O)c1ccc(NC(=O)CSc2nnc3c4ccccc4n(C(C)C)c3n2)cc1 | -0.5% | nt | 0.5% | 3 | nt | 1.8 | nt
38 | COC(=O)c1cc2oc3ccccc3c2n1CC(=O)Nc1cccc(SC)c1 | 4.4% | nt | 4.3% | -1 | nt | -0.3 | nt
39 | C=CC[n+]1c(-c2ccc(C)cc2)csc1Nc1c(C)n(C)n(-c2ccccc2)c1=O | nt | -1% | -0.4% | -10 | 14 | 0.7 | 0.7
40 | COc1ccc(N(CC(=O)NCc2ccc(Cl)cc2)S(=O)(=O)c2c(C)noc2C)cc1 | 4.7% | 9% | 3.6% | 5 | -2 | 0.4 | nt
41 | NC(=O)c1ccsc1NC(=O)COC(=O)c1ccccc1NCc1ccco1 | ? | -5% | 3.7% | -26 | 2 | 1.6 | 5.8
42 | O=C(O)CN1C(=O)c2ccc(Oc3ccc([N+](=O)[O-])cc3)cc2C1=O | 0.4% | 1% | 0.4% | -14 | 26 | 0.4 | -9.3
43 | CC(NS(=O)(=O)c1ccc(Br)cc1)C(=O)NCc1ccco1 (centres undefined) | nt | -4% | -0.2% | -19 | 3 | 1.4 | -0.6
44 | NC(=O)c1ccc(NC(=O)COC(=O)c2cc3ccccc3cc2O)cc1 | nt | nt | 10% | 5 | nt | 1.8 | nt
45 | Cc1ccc2c(cnn2C(=O)CCC(=O)N2CCCCC2)c1 | -3.2% | -2% | 1.9% | -10 | -38 | -0.4 | -2.5
46 | CC1CCCN(C(=O)c2cccc(S(=O)(=O)N3CCCC3)c2)C1 (centres undefined) | 0.9% | nt | 0.7% | -1 | 5 | -0.3 | nt
47 | COc1cc(S(=O)(=O)NCc2ccccc2Cl)ccc1-n1cnnn1 | 0.2% | -9% | 2.2% | -5 | -3 | -1.6 | -1.1
48 | COc1ccc(NC(=O)CSc2oc(-c3cccs3)nc2S(=O)(=O)c2ccc(C)cc2)c(OC)c1 | -3.2% | nt | -2.1% | 2 | nt | -0.8 | nt
49 | CC(OC(=O)c1ccc2ncsc2c1)C(=O)N1CCCC1 (centres undefined) | nt | -1% | nt | nt | 6 | nt | 0.7
50 | COc1ccc(/C=N/n2cnc3scc(-c4cccs4)c3c2=O)cc1OC | -17% | 3% | 0.4% | 12 | 26 | -0.6 | 2.2
51 | CC(Sc1ccc(Cl)cc1)C(=O)NNC(=O)c1ccncc1 (centres undefined) | -0.3% | nt | 0.1% | 1 | 14 | 0.4 | nt
52 | CCO/C([O-])=N/c1sn[n+](C)c1C | 0.8% | 18% | -1.2% | 0 | 7 | 0.9 | 3.5
53 | COc1cc(CCC(=O)OCC(=O)Nc2ccc(F)c(F)c2F)cc(OC)c1OC | nt | 5% | -0.2% | 4 | 27 | -0.2 | -19
54 | Cc1ccc([C@H]2C(C(=O)O)=CC[C@@H](c3ccc4c(c3)OCO4)N2S(=O)(=O)c2ccc(C)cc2)cc1 | 1.6% | nt | 0.3% | 6 | nt | -0.7 | nt
55 | O=C(Nc1ccc(S(=O)(=O)N2CCCC2)cc1)C1COc2ccccc2O1 (centres undefined) | 0.8% | -3% | 0.5% | 0 | 3 | 0.8 | 3.7
56 | COC(=O)CCP(=O)(O)Cc1ccccc1CP(=O)(O)CCC(=O)OC | -1.5% | 3% | -0.3% | 9 | -4 | 0.2 | -0.6

High-throughput results from PubChem BioAssay.
